From PubChem
miR-21 reporter – miR-21 reporter, rising signal. HeLa miR-21 FLuc reporter, luciferase, 48 h. Potency, µM (titrated, usually from 38.3 µM), without a hit: top-dose reporter change, positive = more light. 340,000 tested, under 10 active; active = well fitted rising curve with a large enough effect; inconclusive = small, poorly fitted or top-dose-only effect; inactive = no such curve, though single readings can be large or run the other way;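 also: % of control where 0% means no effect; miR-21 action dims this reporter so a rising signal means less miR-21 action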
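HeLa cells endogenously expressing miR-21, stably carrying CMV-driven firefly luciferase with a downstream miR-21 binding site, 2000 cells/well. Titrations up to approximately 40 uM, 48 hours; luciferase luminescence read.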
GLA inh pH 4.5 – alpha-galactosidase A (human) inhibition, pH 4.5 | P06280 | purified enzyme, 4-MU-alpha-Gal fluorescence, pH 4.5 | activity change, negative = inhibition, % at 105 µM | 230,000 tested, under 10 active | AID 1467; inconclusive = small, poorly fitted or top-dose-only inhibition, or a rising curve; inactive = flat fitted curve, though single readings scatter; no compound was filed as active;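 also: 0% = full activity with enzyme and -100% = basal without enzyme; dose as in the result columns while the protocol names 77 µM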
Target sequence (P06280 whole entry, looked up): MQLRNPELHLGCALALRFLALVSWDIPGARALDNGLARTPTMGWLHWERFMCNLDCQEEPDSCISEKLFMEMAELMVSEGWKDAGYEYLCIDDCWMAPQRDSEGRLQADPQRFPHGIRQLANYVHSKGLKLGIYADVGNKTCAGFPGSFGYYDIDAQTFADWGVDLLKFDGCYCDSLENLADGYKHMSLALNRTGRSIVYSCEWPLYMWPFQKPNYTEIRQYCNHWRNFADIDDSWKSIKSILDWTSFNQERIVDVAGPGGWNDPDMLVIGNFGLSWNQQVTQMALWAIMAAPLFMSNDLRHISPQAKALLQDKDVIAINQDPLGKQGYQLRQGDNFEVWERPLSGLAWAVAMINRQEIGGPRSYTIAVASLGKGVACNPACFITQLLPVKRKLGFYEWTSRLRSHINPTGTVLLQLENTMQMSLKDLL
Rango-impB inh – Rango-importin beta binding inhibition. Q14974. Rango CFP/YFP FRET sensor + importin beta, 45 min. Potency, µM (highest dose often 92.2 µM), for inactives: top-dose inhibition of complex formation. 340,000 compounds, 0.031% hits; active = rising FRET ratio curve, often small or poorly fitted; inconclusive = mostly compound fluorescence or quenching in the first reads; inactive = flat curves in all reads;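 also: potency is read from the fitted curve at half-maximal effect; 0% = DMSO wells and 100% = buffer wells lacking importin beta; nearly all actives have a fitted effect of over 15% in size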
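Inhibition scored from the CFP 486 nm/YFP 530 nm FRET ratio 45 min after adding 0.125 microM importin beta to 50 nM Rango biosensor preincubated 5 min with compound (room temperature, PBS with DTT, Tween-20, BSA). No-importin wells as positive control.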
Rango dissoc inh – inhibition of RanGTP-driven Rango-importin beta dissociation | O95149+P62826 | Biochemical FRET Rango-importin beta, RanGTP-induced dissociation | Potency, µM (titrated, usually from 46.1 µM), without a hit: top-dose activity change, negative = inhibition | 340,000 compounds, 0.071% hits; active means falling FRET ratio curve, often poorly fitted, with flat reads before Ran was added; inconclusive means other falling curves, or compound fluorescence or quenching; inactive means flat or rising ratio curve;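 also: potency is read from the fitted curve at half-maximal effect; % of control where 0% means no effect; nearly all actives have a fitted effect of over 45% in size; -100% = wells without RanGTP and RCC1; the record marks most hits as doubtful in a second field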
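Rango (0.1 uM)–importin beta (0.25 uM) complex; RanGTP-RCC1 trigger; 45 min RT; CFP/YFP FRET read.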
Numbers without * were called inactive; ? = inconclusive; / = no result given; & = joins results of further samples.

SMILES	miR-21 reporter	GLA inh pH 4.5	Rango-impB inh	Rango dissoc inh
COc1ccc(/C=C2\CC/C(=C\c3ccc(OC)cc3OC)C2=O)c(OC)c1	-6%	-1	?	?
Cc1onc(-c2ccccc2Cl)c1C(=O)Nc1nnc(C(C)C)s1	-2%	8	1.1%	1%
CCCCCC(NC(=O)C1CCN(C(=O)[C@@H](NS(=O)(=O)c2ccc(C)cc2)C(C)C)CC1)C(=O)O (some centres undefined)	1%	/	-0.1%	-3%
N=c1c(C(=O)NC2CCCC2)cc2c(=O)n3ccccc3nc2n1CCN1CCOCC1	0%	6	?	?
O=c1c2cnn(-c3ccccc3)c2nc(-c2cccs2)n1-c1ccc(Br)cc1	-14%	/	0.4%	0%
CSc1ccccc1NC(=O)c1ccc(Cl)s1	-26%	-3	4.2%	-6%
O=C(c1ccc(Cl)c([N+](=O)[O-])c1)N1CCCc2ccccc21	-31%	/	-4.6%	12%
O=C(Oc1cccc(NC(=O)c2ccccc2Cl)c1)c1ccc([N+](=O)[O-])cc1	-22%	12	-0.3%	-1%
CCCCCCCCNC(=O)c1ccc(C)cc1	-2%	3	/	/
CN1/C(=C\C(=O)COC(=O)CNC(=O)c2ccc3ccccc3c2)C(C)(C)c2ccccc21	-2%	-1	?	-14%
CN(CC(=O)Nc1ccc(F)cc1)C(=O)COc1ccccc1Cc1ccccc1	/	/	0.5%	10%
COc1ccc2c(c1)CC/C(=C/c1ccccn1)C2=O	-3%	/	6.2%	-11%
Cn1c(=O)oc2cc(S(=O)(=O)NCCC(=O)NCc3ccccc3Cl)ccc21	-3%	/	0.4%	3%
c1ccc(Cc2noc(CN3CCCC(CN4CCOCC4)C3)n2)cc1 (centres undefined)	-3%	9	2.4%	-24%
CCCC1=Nc2cc(C(=O)NCCN3CCOCC3)ccc2Sc2ccccc21	5%	/	3.4%	-11%
COc1ccc(Cl)cc1C(=O)NNC(=O)c1cc2ccccc2o1	/	/	-0.2%	60%
Cc1ccc(C)c(S(=O)(=O)NC(CCC(N)=O)C(=O)O)c1 (centres undefined)	-3%	2	-3.2%	-2%
O=S(=O)(Nc1ncccn1)c1ccc(Cl)cc1	0%	/	-1.7%	7%
CN(C(=O)CSc1nnn(C)n1)c1ccccc1	-3%	/	-1.3%	5%
O=C(CN1C(=O)NC2(CCCC2)C1=O)NCc1ccccc1	/	/	-2.5%	4%
Cn1c(N)c(C(=O)COC(=O)[C@H](Cc2ccccc2)N2C(=O)c3ccccc3C2=O)c(=O)n(C)c1=O	-15%	?	-0.1%	0%
NS(=O)(=O)c1cccc(NC(=O)c2cccnc2Oc2ccccc2)c1	-1%	-9	1.1%	14%
O=C(Cc1ccccc1)Nc1nc(-c2ccc(F)c(F)c2)cs1	-7%	/	-3.3%	17%
CCCCCCC(O)(c1ccc(OC)cc1)C(CN1CCOCC1)c1ccccc1 (centres undefined)	25%	/	5.6%	5%
COc1ccc(CN(C(=O)c2cnccn2)C(C(=O)NC(C)(C)C)c2cc(OC)c(OC)c(OC)c2)cc1 (centres undefined)	3%	0	-2.1%	-8%
CCOc1ccccc1-c1cc(C(=O)Nc2ccc(C(=O)O)cc2)c2ccccc2n1	1%	/	1.5%	-15%
COc1ccc(NC(=O)c2nc[nH]c2C(=O)N[C@@H](C)C(=O)OC(C)(C)C)cc1	-5%	-7	-6.0%	25%
CN(CC(=O)Nc1ccccc1Cl)C(=O)C1CCN(C(=O)c2ccc(F)cc2)CC1	/	/	0.2%	-2%
O=C(Nc1ccc(C(F)(F)F)cc1)c1ccccc1-n1cnnn1	/	/	-5.7%	-4%
CCOc1ccc(N(C(=O)c2ccc3c(c2)OCO3)C2C=CS(=O)(=O)C2)cc1 (centres undefined)	0%	/	-0.9%	-6%
O=C(CN1CCN(c2nc(-c3ccc(F)cc3)cs2)CC1)Nc1ccc2c(c1)OCO2	2%	-2	0.1%	-2%
CCN(CC)S(=O)(=O)c1ccc(Cl)c(NC(=O)c2cc(Cl)cc(Cl)c2)c1	-2%	4	0.1%	31%
CCC(CC)C(=O)c1c[nH]c(C(=O)NCCCN2CCOCC2)c1	-5%	-24	-1.2%	2%
COc1ccccc1NC(=O)c1nn(-c2ccc(F)c(F)c2)ccc1=O	-7%	-5	-1.9%	-2%
Cc1ccc(C(=O)n2nc(-c3ccccc3)nc2NCc2ccco2)cc1	-28%	-2	3.4%	7%
Cc1ccc(C(=O)NCCn2c(N)c(C#N)c3nc4ccccc4nc32)cc1	-7%	3	?	?
Cc1c(NS(=O)(=O)c2cccc(C(=O)Nc3ccccc3)c2)c(=O)n(-c2ccccc2)n1C	/	/	-0.1%	11%
O=S(=O)(NCCc1ccccc1)c1ccc(F)cc1	-13%	/	1.1%	2%
C=CCn1c(SCC(=O)Nc2cc(C)c(Cl)cc2OC)nnc1-c1ccco1	-8%	7	3.4%	-1%
COc1cccc(NS(=O)(=O)c2ccc3c(c2)CCN3C(C)=O)c1	17%	/	1.5%	1%
CCc1ccc(CCC(=O)Nc2sc(C)c(C)c2C(=O)OC)o1	-2%	8	0.7%	1%
CCC(Sc1ccc2nnc(-c3cccnc3)n2n1)C(=O)OC (centres undefined)	3%	-5	2.3%	31%
CC(C)COP(=O)(c1ccc(N(C)C)cc1)C(O)c1ccncc1 (centres undefined)	0%	3	?	-1%
CC(C)(C)C(=O)/C(C#N)=C/c1ccc(O)cc1	0%	1	?	?
CCOc1ccccc1NC(=O)NNC(=O)COc1cccc(C)c1C	0%	/	1.7%	-6%

Four entries from above, field by field:
CSc1ccccc1NC(=O)c1ccc(Cl)s1
- miR-21 reporter: -26%
- GLA inh pH 4.5: -3
- Rango-impB inh: 4.2%
- Rango dissoc inh: -6%

CCC(CC)C(=O)c1c[nH]c(C(=O)NCCCN2CCOCC2)c1
- miR-21 reporter: -5%
- GLA inh pH 4.5: -24
- Rango-impB inh: -1.2%
- Rango dissoc inh: 2%

CN(CC(=O)Nc1ccc(F)cc1)C(=O)COc1ccccc1Cc1ccccc1
- miR-21 reporter: /
- GLA inh pH 4.5: /
- Rango-impB inh: 0.5%
- Rango dissoc inh: 10%

c1ccc(Cc2noc(CN3CCCC(CN4CCOCC4)C3)n2)cc1 (centres undefined)
- miR-21 reporter: -3%
- GLA inh pH 4.5: 9
- Rango-impB inh: 2.4%
- Rango dissoc inh: -24%

The list continues.
SMILES	miR-21 reporter	GLA inh pH 4.5	Rango-impB inh	Rango dissoc inh
CCCn1c(N)c(C(=O)CN(C)CC(=O)Nc2c(C)cc(C)cc2C)c(=O)[nH]c1=O	/	/	-3.5%	1%
O=C1C=C(NCC2CCCO2)CC(c2ccccc2)C1 (centres undefined)	-4%	1	-0.3%	-17%
CCOc1ccc2[nH]c3c(=O)n(CCc4ccc(OC)cc4)cnc3c2c1	1%	7	1.9%	-1%
C=CCNC(=O)c1onc(CSc2cccc(Cl)c2)c1C(=O)O	0%	5	-0.1%	17%
CCc1ccc(NC(=O)CN(c2ccc(OC)cc2)S(=O)(=O)c2c(C)[nH]c(=O)[nH]c2=O)cc1	-6%&-2%	/	4.3%	2%
C=CCn1c(=O)c2c3c(sc2n2c(Nc4ccc(C(=O)OCC)cc4)nnc12)CCCC3	0%	-2	-0.6%	-19%
CCOc1ccc(NCCC#N)cc1	-5%	5	-1.7%	-1%
COC(=O)c1sccc1NC(=O)Nc1ccc(Cl)c(Cl)c1	-32%	5	0.3%	-5%
CN(C)c1ccc(/C=N/NC(=O)CCCO)cc1	-21%	13	?	3%
O=C(CCCN=C1NS(=O)(=O)c2ccccc21)OCC(=O)c1ccc(F)cc1	/	/	1.0%	0%
COc1ccc(/C=C/c2n[nH]c(=O)c(C#N)c2C)cc1	-9%	/	-0.2%	-12%
CCOC(=O)CNC(=O)CSc1ncnc2c1cnn2-c1ccccc1	-1%	-8	-2.3%	-10%
CC(=O)Nc1cc(NC(C)=O)cc(C(=O)OCC(=O)N2CC(C)OC(C)C2)c1 (centres undefined)	-2%	-6	0.1%	-3%
Oc1ccc(/C=N/n2c(-c3ccccc3)n[nH]c2=S)cc1	0%	/	?	-1%
COc1ccccc1N1CCN(C(=O)c2cc(-c3ccc(Cl)c(Cl)c3)on2)CC1	2%	-4	3.9%	-9%
Oc1[nH]c2ccccc2c1C=Nc1ccc2c(c1)OCCO2	9%	-7	?	?
O=C(c1cccc(Br)c1)N1CCN(c2ccccn2)CC1	/	/	4.9%	9%
COc1ccccc1CNC(=O)C1CCN(S(=O)(=O)c2ccc3c(c2)OCCO3)CC1	-1%	/	-0.1%	8%
COc1cc(OC)cc(C(=O)N2CCC(C(=O)Nc3ccc4c(c3)OCCO4)CC2)c1	-4%	-2	0.5%	-15%
CCCN(C(=O)CSc1nc2c(cnn2-c2ccccc2)c(=O)[nH]1)C1CCS(=O)(=O)C1 (centres undefined)	-1%	-5	-0.8%	-17%
Cc1onc(-c2ccccc2)c1C(=O)NNC(=S)NC(=O)c1ccc2c(c1)OCO2	-61%	9	1.4%	-4%
CCN1CNC(=S)N(c2cccc(C)c2)C1	1%	-10	3.7%	2%
O=C1OC(/C(=C\Nc2ccc(F)cc2F)[N+](=O)[O-])c2ccccc21 (centres undefined)	27%	9	-0.5%	27%
CCOc1ccc(S(=O)(=O)N(C)CC(=O)NC2CC2)cc1	-1%	/	-1.6%	0%
O=C(COC(=O)C1CCN(c2ccc(C(F)(F)F)cn2)CC1)Nc1ccc(F)cc1[N+](=O)[O-]	/	/	-2.5%	3%
CCN(C(=O)CC(C)C)c1nnc(Cn2nnc3ccccc32)s1	0%	1	-1.7%	3%
CCOc1ccccc1C(=O)NN1C(=O)C2CCCCC2C1=O (centres undefined)	-7%	1	0.2%	4%
C/C(N)=C(\C#N)C(=O)NCCc1ccccn1	-9%	5	?	2%
O=C(Nc1cccnc1Cl)c1cc(-c2ccco2)on1	-50%	9	0.8%	-6%
COC(=O)CSc1nnc(-c2ccc(OC)c(OC)c2)o1	1%	8	-4.8%	-7%
Cc1cc(F)c(F)c(C(=O)N2CCCCC2C)c1Cl (centres undefined)	0%	2	0.7%	7%
CCn1cc(Cl)c(C(=O)NNC(=O)CCn2nc(C)c([N+](=O)[O-])c2C)n1	-7%	0	-0.1%	-4%
C=CCNC(=S)NNC(=O)C(CCCC)CC(C)O (centres undefined)	-6%	10	-1.6%	-1%
CC1CCCCC1NS(=O)(=O)c1ccc(S(=O)(=O)N2CCN(CCC#N)CC2)cc1 (centres undefined)	-10%	0	-3.0%	6%
Cc1nc(-c2ccc(F)cc2)c(CC(=O)N2CCN(S(=O)(=O)c3cccc([N+](=O)[O-])c3)CC2)s1	/	/	8.4%	-6%
N#CCCN(CCC#N)C(=O)COc1ccc(Cl)cc1Cl	-13%	-11	-4.6%	-2%
O=C(NCCCN1CCCC1=O)NC12CC3CC(CC(C3)C1)C2	-15%	-5	1.2%	4%
Cc1cccc(-n2nnc(C(=O)Nc3ccc(F)cc3)c2N)c1	-27%	3	0.0%	12%
COCCn1c(N)c(N(Cc2ccccc2)C(=O)CSCC(=O)Nc2ccc(OC)cc2)c(=O)[nH]c1=O	/	/	0.6%	21%
COc1ccc(C(=O)CSc2nnc(CNC(=O)c3ccc(OC)c(OC)c3)n2C)cc1	-10%	-4	-1.0%	10%
CN(C)C(=O)CSc1nc2ccc(C(=O)c3ccccc3)cc2[nH]1	1%	/	3.7%	0%
COCC(=O)N(Cc1cc2cc(C)ccc2[nH]c1=O)c1ccccc1	-7%	/	0.4%	-15%
Cc1onc(-c2c(F)cccc2Cl)c1C(=O)NC1=NCCS1	6%	6	-1.1%	15%
COc1ccc(OC)c(Nc2nc(-c3sc(NC(=O)C(C)(C)C)nc3C)cs2)c1	25%	-7	?	?
O=c1[nH]c(CSc2nc(-c3ccccc3)cs2)nc2ccccc12	-10%	2	-5.3%	-8%
CN(C)CC(=O)Nc1ccc(S(N)(=O)=O)cc1	-5%	3	-0.1%	19%

Arranged by formula weight (ascending): some entries from above
SMILES	miR-21 reporter	GLA inh pH 4.5	Rango-impB inh	Rango dissoc inh
COCC(=O)N(Cc1cc2cc(C)ccc2[nH]c1=O)c1ccccc1	-7%	/	0.4%	-15%
CC1CCCCC1NS(=O)(=O)c1ccc(S(=O)(=O)N2CCN(CCC#N)CC2)cc1 (centres undefined)	-10%	0	-3.0%	6%
Cc1nc(-c2ccc(F)cc2)c(CC(=O)N2CCN(S(=O)(=O)c3cccc([N+](=O)[O-])c3)CC2)s1	/	/	8.4%	-6%

Only part of the results is shown (hit frequency here may not be typical).
